CFTR F508del: total CFTR protein upregulators, primary screen, cell-based, HeLa F508del-CFTR, immunofluorescence, viability (AID 1224863) | 10,000 compounds, 0.1% hits | calls, or highest fold increase where a dose series was run | Cystic fibrosis transmembrane conductance regulator (Homo sapiens) | HeLa F508del-CFTR, immunofluorescence total CFTR, 24 h; by the record results were divided by relative cell number; some inactives read as strong as hits; in the data nearly all actives have a first-pass fold increase above 1.5; a few of its hits are not listed in these tables;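 further: total CFTR protein by anti-CFTR immunofluorescence in fixed cells; first pass at 25 µM or 10 µg/mL by library and series up to twice that; 1 = untreated cells; first-pass hits also needed half or more of the cells alive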
CFTR F508del fold 25 µM: second read-out of CFTR F508del, no call of its own (marks repeat the call); fold increase; measured here: primary screen single dose 25 uM; library dosed in µM
CFTR F508del fold 10 ug/mL: second read-out of CFTR F508del, no call of its own (marks repeat the call); fold increase; measured here: primary screen 10 ug/mL
CFTR F508del viability 25 µM: second read-out of CFTR F508del, no call of its own (marks repeat the call); viability, %; measured here: primary viability 25 uM; library dosed in µM;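 0% = killed and 100% = untreated cells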
CFTR F508del viability 10 ug/mL: also measured in CFTR F508del; calls as there; viability, %; measured here: primary viability 10 ug/mL;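 0% = killed and 100% = untreated cells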
The depositor's hits bear a star; i = inactive; · = not tested or not shown; & = joins results of further samples.

item | canonical_smiles | CFTR F508del | CFTR F508del fold 10 ug/mL | CFTR F508del viability 25 µM
1 | CCCC(=O)OCC[N+](C)(C)C | i | · | 88
2 | C[C@]12CC[C@H]3[C@@H](CCC4=CC(=O)CC[C@@]43C)[C@@H]1CC[C@@H]2OC(=O)CCC1CCCC1 | i | · | 88
3 | CC(N)Cc1cccc(Cl)c1 (centres undefined) | i | 1 | ·
4 | O=c1[nH]oc2c1CCNC2 | i | · | 95
5 | C[C@H](N)[C@H](O)c1ccc(O)c(O)c1 | i | · | 109
6 | [N-]=[N+]=CC(=O)OCC(N)C(=O)O (centres undefined) | i | · | 91
7 | c1ccc(CC2CCN(Cc3ccccc3)CC2)cc1 | i | 0.97 | ·
8 | Oc1ccc2c3c1O[C@H]1[C@@H](O)CC[C@@]4(O)[C@@H](C2)N(CC2CCC2)CC[C@]314 | i | · | 84
9 | NC1=NC(=O)N2CC12 (centres undefined) | i | · | 89
10 | C[C@]12CCC(=O)C=C1CC[C@@H]1[C@@H]2CC[C@@]2(C)[C@H]1CC[C@]2(C)O | i | · | 85
11 | Cc1ccc(N=CN(C)C=Nc2ccc(C)cc2C)c(C)c1 | i | · | 100
12 | Cc1ccc(-c2nc3ccc(C)cn3c2CC(=O)N(C)C)cc1 | i | · | 93
13 | CNC(C)C(O)c1ccccc1 (centres undefined) | i | · | 81
14 | O=C1CC2OCC=C3CN4CC[C@]56c7ccccc7N1C5[C@H]2[C@H]3CC46 (some centres undefined) | i | · | 89
15 | C[C@@H]([C@H](O)c1ccccc1)N(C)C | i | · | 89

item | CFTR F508del fold 25 µM | CFTR F508del viability 10 ug/mL
1 | 1 | ·
2 | 0.91 | ·
3 | · | 101
4 | 0.95 | ·
5 | 1.1 | ·
6 | 1 | ·
7 | · | 102
8 | 0.92 | ·
9 | 1 | ·
10 | 1 | ·
11 | 1.1 | ·
12 | 1.1 | ·
13 | 0.94 | ·
14 | 1.1 | ·
15 | 1.2 | ·

Remaining list, next part.
item | canonical_smiles | CFTR F508del | CFTR F508del fold 10 ug/mL | CFTR F508del viability 25 µM
16 | CC[C@@H](C(N)=O)N1CCCC1=O | i | · | 88&84
17 | Cc1cccc(C)c1NC(=O)CN1CCCC1=O | i | · | 106&108
18 | O=C(OCc1ccccc1)C(O)(c1ccccc1)c1ccccc1 | i | 0.92 | ·
19 | CCC(COC(=O)c1cc(OC)c(OC)c(OC)c1)(c1ccccc1)N(C)C (centres undefined) | i | · | 82
20 | C[C@]12CCC3[C@@H](CC[C@@]45O[C@@H]4C(O)=C(C#N)C[C@]35C)C1CC[C@@H]2O (some centres undefined) | i | · | 95
21 | CNC(=O)Oc1cccc2ccccc12 | i | · | 82
22 | CN1C(=O)C(O)N=C(c2ccccc2)c2cc(Cl)ccc21 (centres undefined) | i | · | 92
23 | NCc1ncn[nH]1 | i | 0.95 | ·
24 | COc1ccc(CCNCc2ccc(OC)cc2)cc1 | i | 1 | ·
25 | CC(N)Cc1ccc(Br)cc1 (centres undefined) | i | 0.97 | ·
26 | C#C[C@]1(O)CC[C@H]2[C@@H]3CCC4=CC(=O)CCC4=C3C=C[C@@]21CC | i | · | 81
27 | NC1CCOC1=O (centres undefined) | i | 1 | ·
28 | C=CCNCCCCCCCCCC (tested in a mixture with another compound) | i | · | 86
29 | COc1ccc(C(CN(C)C)C2(O)CCCCC2)cc1 (centres undefined) | i | · | 94&98&91
30 | CC(=O)NC1CCSC1=O (centres undefined) | i | · | 93

item | CFTR F508del fold 25 µM | CFTR F508del viability 10 ug/mL
16 | 0.93&1.1 | ·
17 | 1&1 | ·
18 | · | 87
19 | 1 | ·
20 | 0.89 | ·
21 | 1.1 | ·
22 | 1 | ·
23 | · | 87
24 | · | 104
25 | · | 85
26 | 0.85 | ·
27 | · | 108
28 | 1.3 | ·
29 | 1.1&1.1&1.1 | ·
30 | 1.1 | ·

Another view of part of the listing above.
Under each structure: CFTR F508del | CFTR F508del fold 10 ug/mL | CFTR F508del viability 25 µM | CFTR F508del fold 25 µM | CFTR F508del viability 10 ug/mL
19) CCC(COC(=O)c1cc(OC)c(OC)c(OC)c1)(c1ccccc1)N(C)C (centres undefined)
→ i | · | 82 | 1 | ·
20) C[C@]12CCC3[C@@H](CC[C@@]45O[C@@H]4C(O)=C(C#N)C[C@]35C)C1CC[C@@H]2O (some centres undefined)
→ i | · | 95 | 0.89 | ·
21) CNC(=O)Oc1cccc2ccccc12
→ i | · | 82 | 1.1 | ·
22) CN1C(=O)C(O)N=C(c2ccccc2)c2cc(Cl)ccc21 (centres undefined)
→ i | · | 92 | 1 | ·
23) NCc1ncn[nH]1
→ i | 0.95 | · | · | 87
24) COc1ccc(CCNCc2ccc(OC)cc2)cc1
→ i | 1 | · | · | 104
25) CC(N)Cc1ccc(Br)cc1 (centres undefined)
→ i | 0.97 | · | · | 85

Back to the main list with the 2 entries that preceded the break.
item | canonical_smiles | CFTR F508del | CFTR F508del fold 10 ug/mL | CFTR F508del viability 25 µM
29 | COc1ccc(C(CN(C)C)C2(O)CCCCC2)cc1 (centres undefined) | i | · | 94&98&91
30 | CC(=O)NC1CCSC1=O (centres undefined) | i | · | 93
31 | CN1CCc2cccc3c2[C@H]1Cc1ccc(O)c(O)c1-3 | i | · | 73
32 | Cc1ccc(CN)cn1 | i | 1.1 | ·
33 | CN1CCc2cc3c(cc2C1O)OCO3 (centres undefined) | i | · | 95
34 | CC[C@H]1CN2CCC1C[C@@H]2[C@@H](O)c1ccnc2ccc(OC)cc12 (some centres undefined) | i | · | 81
35 | O=C1C[C@@H]2OCC=C3CN4CC[C@]56c7ccccc7N1[C@H]5[C@H]2[C@H]3C[C@H]46 | i | · | 81
36 | C[C@H](N)[C@H](O)c1ccccc1 | i | · | 114
37 | CC(C)c1cccc(C(C)C)c1O | i | · | 103&106
38 | C=CCn1cc(C(=O)O)c2ccccc21 | i | 0.99 | ·
39 | COP(=S)(OC)Oc1ccc(SC)c(C)c1 | i | · | 91
40 | Nc1nnc(C2CCNCC2)o1 | i | 1.1 | ·
41 | COc1ccc(O)c(C(C)(C)C)c1 | i | · | 111
42 | CCC(C)(C)O | i | · | 103
43 | CNCC(=O)c1ccc(O)c(O)c1 | i | · | 95
44 | C=CCC1(C(C)CCC)C(=O)N=C(S)NC1=O (centres undefined) | i | · | 94
45 | CC(=O)Nc1cc([As](=O)(O)O)ccc1O | i | · | 101

item | CFTR F508del fold 25 µM | CFTR F508del viability 10 ug/mL
29 | 1.1&1.1&1.1 | ·
30 | 1.1 | ·
31 | 0.95 | ·
32 | · | 106
33 | 0.92 | ·
34 | 1.4 | ·
35 | 1.1 | ·
36 | 1.1 | ·
37 | 1&1.1 | ·
38 | · | 76
39 | 0.92 | ·
40 | · | 99
41 | 1.1 | ·
42 | 1.1 | ·
43 | 1.1 | ·
44 | 1 | ·
45 | 1.1 | ·

A few values from above.
CFTR F508del fold 10 ug/mL, cpd 32 → 1.1
CFTR F508del viability 25 µM, cpd 44 → 94

(listing goes on)
item | canonical_smiles | CFTR F508del | CFTR F508del fold 10 ug/mL | CFTR F508del viability 25 µM
46 | CCN1C[C@@]2(COC)C3[C@@H](OC)[C@H]4[C@@H]1[C@]3(C(OC)C[C@H]2O)C1C[C@@]2(O)[C@H](OC(=O)c3ccccc3)C1[C@]4(OC(C)=O)[C@@H](O)[C@@H]2OC (some centres undefined) | i | · | 82
47 | COP(=O)(OC)C(O)C(Cl)(Cl)Cl (centres undefined) | i | · | 82
48 | O=C(O)CCCc1ccc(N(CCCl)CCCl)cc1 | i | · | 110&106
49 | COc1ccc(C(=O)c2c(C)n(CCN3CCOCC3)c3ccccc23)cc1 | i | · | 75
50 | CN1CC(=O)N(CN2CC=C(c3ccccc3)CC2)C1=O | i | 1 | ·
51 | COc1ccc(OC)c(C(O)CN)c1 (centres undefined) | i | 0.65 | ·
52 | CN1CCN(C(=O)O[C@H]2c3nccnc3C(=O)N2c2ccc(Cl)cn2)CC1 | i | · | 115
53 | COc1ccc(CCNCCC(C)CCC=C(C)C)cc1 (centres undefined) | i | 0.92 | ·
54 | c1ccc2c(c1)Nc1ccccc1S2 | i | · | 78
55 | CNC(C)(C)Cc1ccccc1 | i | · | 112
56 | Nc1ccncc1 | i | · | 85
57 | O=c1[nH]c2ccc(Br)cc2c(=O)n1-c1ccccc1 | i | 1 | ·
58 | Oc1cc(Cl)ccc1Oc1ccc(Cl)cc1Cl | i | · | 69
59 | CCCCN1C(=O)C(=O)N(CN2CC=C(c3ccccc3)CC2)C1=O | i | 1.1 | ·
60 | Cc1ccc(C2=CCN(CN3C(=O)NC(C)(C4CC4)C3=O)CC2)cc1 (centres undefined) | i | 1.1 | ·

item | CFTR F508del fold 25 µM | CFTR F508del viability 10 ug/mL
46 | 1.2 | ·
47 | 1.4 | ·
48 | 1&1.1 | ·
49 | 0.91 | ·
50 | · | 96
51 | · | 6
52 | 1 | ·
53 | · | 84
54 | 1 | ·
55 | 1.1 | ·
56 | 0.9 | ·
57 | · | 97
58 | 0.87 | ·
59 | · | 96
60 | · | 93

(more compounds)
item | canonical_smiles | CFTR F508del | CFTR F508del fold 10 ug/mL | CFTR F508del viability 25 µM
61 | CCC(N)C(O)c1ccc(O)c(O)c1 (centres undefined) | i | · | 102
62 | CCCN(CCC)CC(O)c1ccccc1 (centres undefined) | i | 1.1 | ·
63 | C[C@]12CCC(=O)C=C1C=CC1C2CC[C@@]2(C)C1CC[C@@]2(O)CCC(=O)O (some centres undefined) | i | · | 81
64 | CC(N)Cc1c(F)cccc1F (centres undefined) | i | 1 | ·
65 | Cc1cc(O)ccc1Cl | i | · | 106

item | CFTR F508del fold 25 µM | CFTR F508del viability 10 ug/mL
61 | 1 | ·
62 | · | 105
63 | 1 | ·
64 | · | 102
65 | 0.95 | ·

Assay outcomes deposited in PubChem BioAssay by Southern Research Institute.

A portion of the library; the hit share may differ from the screen's.
